# Beta cell apopt = beta cell apoptosis inhibition | INS-1E cytokine-induced death, ATP luminescence, 48 h; percent of positive-control rescue, neutral wells zero | protection from apoptosis, % (concentration not given with the values) | hit rate 0.8% among 300,000;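 active = all replicates at 75% or more, or half of them and the mean; inconclusive = half reach 75% but not the mean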;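 also: 0% = cytokine-treated negative control wells and 100% = positive control rescue; higher means more ATP so stronger rescue from cytokine killing; wells of about 40 µL received 100 nL stock; the first replicate is given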
# FGF22 binding = binders of recombinant human FGF22 by thermal shift; hit rate 1.5% among 340,000; SYPRO orange fluorescence; percent of sucrose octasulfate shift, DMSO zero; calls only at 9.99 µM;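 active = melting point raised past a set limit in the mean and every replicate; inconclusive = no clear call; three in four hits are not shown here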
# Target sequence (Q9HCT0 whole entry, looked up): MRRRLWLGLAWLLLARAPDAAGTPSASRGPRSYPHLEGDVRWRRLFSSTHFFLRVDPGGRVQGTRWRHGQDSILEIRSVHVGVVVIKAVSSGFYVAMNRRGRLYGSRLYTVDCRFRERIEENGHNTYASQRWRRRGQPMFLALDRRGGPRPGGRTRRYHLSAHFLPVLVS
# T cruzi inh = T. cruzi replication inhibition; T. cruzi beta-gal in NIH3T3, luminescence, 90 h; inhibition, % (no concentration beside the values); hit rate 1.4% among 300,000;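 active = mean inhibition across valid replicates above about 55%, limit read from the data; inconclusive = mean below that limit but half or more replicates reach it; inactive = mean below it, under half of replicates reach it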;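 also: signal also drops with host cell toxicity which is not excluded here; 0% = plate median of DMSO wells and 100% = zero luminescence signal; higher percent means less beta-gal luminescence so fewer parasites; stock transfer was 50 nL into about 50 µL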
# E coli growth = E. coli growth inhibition; Escherichia coli growth, OD600, 23 h; active compounds read low; hit rate 0.21% among 330,000; OD600 absorbance (no concentration beside the values);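 active = OD600 absorbance below the run mean of sample wells minus 3.6 SD, in any replicate, cut at about 0.56 in these data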;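 also: stock transfer was 300 nL into about 60 µL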
# Ecoli rRNA inh = selective bacterial rRNA inhibition in E. coli | E. coli WT GFP vs humanized-ribosome RFP mutants, fluorescence, 24 h; active compounds read low; DMSO median 0, no signal -100 | GFP signal change (wild-type ribosome), % (test concentration not listed) | hit rate 1.6% among 350,000;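 active = significant combined selectivity score with lowered wild-type GFP, culture density cut under 30%, mutant RFP and density less affected; inactive = any of these conditions unmet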; also: one replicate is shown; some compounds called inactive have numbers as strong as hits
# UCH37 DUB inh = inhibitors of human deubiquitinating enzyme UCH37; purified proteasome/UCH37, Ub-AMC cleavage fluorescence; hit rate 0.33% among 330,000; inhibition, % (concentration not given with the values);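 active = mean of two replicates above 20%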;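 also: 0% = compound-free wells with enzyme and 100% = wells lacking proteasome; stock transfer was 100 nL into about 20 µL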
# Target sequence (Q9Y5K5 whole entry, looked up): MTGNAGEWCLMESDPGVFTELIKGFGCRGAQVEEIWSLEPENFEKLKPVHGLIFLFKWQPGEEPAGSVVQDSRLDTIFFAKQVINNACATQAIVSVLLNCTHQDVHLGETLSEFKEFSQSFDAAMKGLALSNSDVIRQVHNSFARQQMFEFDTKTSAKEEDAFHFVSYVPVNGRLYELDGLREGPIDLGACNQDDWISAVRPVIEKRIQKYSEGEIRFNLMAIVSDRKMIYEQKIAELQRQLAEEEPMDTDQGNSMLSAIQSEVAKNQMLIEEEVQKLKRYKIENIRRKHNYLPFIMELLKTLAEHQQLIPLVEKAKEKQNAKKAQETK
#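 Schedule: 30 min plus 25 min, room temperature / Material: human UCH37 within purified proteasomes / Technique: AMC fluorescence intensity at 355/460 nm / Buffer or medium: pH 7.4 Tris-HCl (50 mM) with ovalbumin, ATP-MgCl2, DTT / Controls: wells without proteasome as full block, compound-free enzyme plus substrate as uninhibited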
# Bfl-1 A1 inh = inhibitors of the anti-apoptotic protein A1, read as caspase activation; MEF A1-2A-BIM cells, Caspase-Glo 3/7 luminescence, 3 h; percent of clofoctol response, vehicle zero; hit rate 0.066% among 330,000; caspase activation, % (concentration not given with the values);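 active = over half of replicate activation scores above 10%, or exactly half above 10 with the replicate mean above 10; inconclusive = replicate mean below 10 yet half the replicates above 10; inactive = over half of replicates below 10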;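 also: wells of about 30 µL received 50 nL stock; many hits fall short of the cut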
# AF4-AF9 inh = inhibitors of human MLL-AF4/AF9 interaction; hit rate 0.47% among 350,000; inhibition, % at 10 µM; AID 651704; AlphaScreen, biotin-AF4 peptide binding to FLAG-AF9; P42568;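 active = every replicate reaching a set inhibition limit, whatever the replicate mean, cut at about 25% in these data; inconclusive = mean inhibition reaches that limit but some replicates miss it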;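 also: 0% = plate neutral control median and 100% = total signal loss; the record names both 10 and 1 µM as test concentration; the first replicate is given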
# Target sequence (P42568 whole entry, looked up): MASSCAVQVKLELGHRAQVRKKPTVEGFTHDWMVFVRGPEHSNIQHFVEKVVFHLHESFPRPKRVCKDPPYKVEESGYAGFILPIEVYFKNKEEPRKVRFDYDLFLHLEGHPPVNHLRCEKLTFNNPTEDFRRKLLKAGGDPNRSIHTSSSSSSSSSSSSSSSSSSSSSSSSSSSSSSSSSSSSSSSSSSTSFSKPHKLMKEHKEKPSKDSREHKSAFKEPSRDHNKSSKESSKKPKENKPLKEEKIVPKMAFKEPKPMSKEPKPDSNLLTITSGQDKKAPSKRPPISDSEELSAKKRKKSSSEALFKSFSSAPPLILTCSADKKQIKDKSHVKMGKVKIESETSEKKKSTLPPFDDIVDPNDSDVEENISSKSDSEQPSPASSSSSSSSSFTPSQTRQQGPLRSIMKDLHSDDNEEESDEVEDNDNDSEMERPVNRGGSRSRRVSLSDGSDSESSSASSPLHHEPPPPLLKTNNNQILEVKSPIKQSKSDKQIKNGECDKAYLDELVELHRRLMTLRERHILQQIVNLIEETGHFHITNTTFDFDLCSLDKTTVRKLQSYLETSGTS
# Ecoli rRNA inh OD600 = further read-out of Ecoli rRNA inh, marked with its call; OD600 change, %; measured here: OD600 growth;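 optical density of the mix in the first replicate; 0 = DMSO median and -100 = no signal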
# Ecoli rRNA inh RFP = also measured in Ecoli rRNA inh; calls as there; RFP signal change, %; measured here: RFP humanized mutant strains;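 first replicate; 0 = DMSO median and -100 = no signal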
# The depositor's hits bear a star; i = inactive; ? = inconclusive; · = no result given. These rows are one share of the data; the hit share may differ from the screen's.
SMILES,Beta cell apopt,FGF22 binding,T cruzi inh,E coli growth,Ecoli rRNA inh,Ecoli rRNA inh OD600,Ecoli rRNA inh RFP,UCH37 DUB inh,Bfl-1 A1 inh,AF4-AF9 inh
Cc1cc2nc(SCC(=O)O)nc(C)c2cc1C,2,i,-21,0.61,-17*,-3.4*,1.6*,-1.0,0.2,-0.5
O=C(CN1CCCC1=O)NC1C2CC3CC(C2)CC1C3 (centres undefined),-4,i,4,0.72,12,5,-0.6,5.6,0.3,-0.1
O=C(COC(=O)c1cnc(Cl)c(Cl)c1)NCCC1=CCCCC1,-6,i,-16,0.68,12,9,0.3,1.2,1.2,-5.4
COCCN(C(=S)Nc1ccc(Cl)cc1OC)C1CCN(C(C)=O)CC1,-6,i,-7,0.66,0,-6,1.8,0.0,1.0,-2.5
C=CCN1C(=O)c2ccc(C(=O)OCC(=O)N(C)C3CCCCC3)cc2C1=O,-12,i,-4,0.66,10,7,-1.5,-2.5,0.2,1.0
NS(=O)(=O)c1ccc(Nc2nc(-c3ccc(F)cc3)cs2)cc1,-5,·,20,0.63,-61,-82,-24,4.4,0.6,8.7
C/C(CC(=O)Nc1ccccc1C(F)(F)F)=N\NC(=O)c1cnccn1,-5,i,2,·,3,5,-1.7,·,-0.1,-1.4
COc1ccc(CNC(=O)COC(=O)CCn2c(C)csc2=O)cc1OC,-1,·,-21,0.66,-5,-3,-2.9,6.5,1.1,-1.3
COc1ccc(C(C)=O)cc1CSc1nc2ccccc2c(=O)n1-c1ccccc1,0,·,7,0.7,·,·,·,5.5,0.6,·
CCCOC(=O)C1[C@H]2C(=O)N(C(C)c3ccc(OC)cc3)C[C@]23C=C[C@H]1O3 (some centres undefined),1,·,2,·,·,·,·,3.0,0.2,·
Cn1cc(/C=C(\NC(=O)c2ccccc2Cl)C(=O)NCCCn2ccnc2)c2ccccc21,-6,i,14,0.59,0,2,-2.4,10,-0.1,6.5
CCSCCC(NC1=CC(=O)CC(C)(C)C1)C(=O)O (centres undefined),-4,·,-15,0.74,·,·,·,-5.5,1.4,·
COc1ccc(C2c3ccc4ccccc4c3Oc3ncn(CCN4CCOCC4)c(=N)c32)cc1 (centres undefined),·,·,36,0.66,·,·,·,8.3,-0.7,·
CCc1ccc(/C=N/NC(=O)Cc2ccc(OC)c(OC)c2)s1,1,i,·,·,-24*,-19*,-0.9*,·,-1.1,5.7
CCN1C(=O)S/C(=C/c2c(OCc3ccc(C(=O)O)cc3)ccc3ccccc23)C1=O,3,·,·,0.64,·,·,·,6.3,-0.2,·
COc1ccc([N+](=O)[O-])cc1N(CC(=O)N(C)C)S(C)(=O)=O,0,i,-6,0.66,10,14,1.9,3.8,-0.3,-2.8
COc1cccc(-c2nn3c(-c4ccccn4)nnc3s2)c1,3,·,7,0.64,·,·,·,0.9,0.1,·
Cc1ccn2cc(C(=O)Nc3ccccc3N3CCOCC3)nc2c1,11,i,6,0.7,5,5,2.6,-1.9,-0.7,4.2
CCN(CC)c1nc(SCCOC(=O)Nc2ccccc2)nc(N(CC)CC)n1,8,i,68*,0.65,-3,4,0.7,4.0,-0.6,1.2
COCCn1c(SCC(=O)NC(=O)NCc2ccccc2)nc2ccccc21,2,·,55*,0.7,·,·,·,0.5,0.6,·
Nc1nonc1N/N=C/c1c(O)ccc2ccccc12,-9,i,-30,·,-44,-61,-6.4,·,0.1,6.6
CN(CC(=O)Nc1cccc(F)c1)CC(=O)N1CCCCC1,-1,i,·,0.69,4,7,-3.2,1.0,-0.7,0.0
COc1ccccc1NC(=O)c1cc([N+](=O)[O-])ccc1NCCN1C(=O)CCC1=O,·,i,-2,0.63,10,5,-9.3,5.1,0.9,0.3
COc1cc([N+](=O)[O-])ccc1NC(=O)COC(=O)CCS(=O)(=O)c1ccc(C)cc1,-7,·,?,0.64,0,-2,1.5,3.5,1.2,0.5
Cc1cccc(Nc2ccncc2S(=O)(=O)NC(=O)NC(C)C)c1,3,i,-2,0.69,·,·,·,5.7,0.6,0.6
CCCN(CCC)c1nc(C#N)nc(N(CCC)CCC)n1,8,i,-8,0.7,22,20,-0.1,0.6,0.9,-1.0
CCC(=O)c1ccc(OCC(=O)OCC(=O)Nc2cccc(S(=O)(=O)N3CCCC3)c2)cc1,-2,i,·,0.66,-7,6,-2.8,1.1,-0.1,-1.7
CCC(C)c1ccc(NC(=S)NN2CCOCC2)cc1 (centres undefined),-5,i,-13,0.67,10,4,5.7,3.9,1.0,2.8
CCCC(=O)Nc1nnc(SCC(=O)NC2CC2)s1,3,i,-16,0.66,7,4,0.6,0.6,0.2,-2.1
CC(=O)Nc1ccc(CN2CCCN(C)CC2)cc1,-4,i,-4,0.7,20,16,3.2,0.5,0.0,0.6
CN=C(Nc1cccnc1)c1ccccc1,0,i,-5,0.67,12,8,-2.6,1.1,0.3,-0.7
Cc1cc(Cl)ccc1OCC(=O)OCC(=O)c1c(N)n(C)c(=O)n(C)c1=O,0,i,·,0.64,2,2,0.2,2.1,16*,-1.8
CCN(c1ccccc1)S(=O)(=O)c1ccc(C(=O)NCCc2ccc(S(N)(=O)=O)cc2)cc1,3,i,-12,0.72,-6,-8,1.8,-0.3,0.2,-0.7
COc1ccc(Cl)cc1N(CC(=O)Nc1ccccc1SC)S(C)(=O)=O,-1,·,6,0.68,-26,-22,0.5,3.8,1.0,·
CC(C)c1ccc(-c2nc(N3CCCC3)nc3n[nH]c(N)c23)cc1,2,·,-9,0.77,·,·,·,5.9,-1.1,·
Cc1cccc(NC(=O)c2ccc(C(=O)c3ccccc3)cc2)n1,-11,i,2,0.68,-18,-22,-3.2,3.9,-6.6,0.5
CC(C)N1C(=O)C(=O)N(CC(=O)N(C)c2ccccc2)C1=O,-6,i,·,0.71,10,6,-2.4,3.2,-0.5,-0.1
CC(C)c1ccc(NC(=S)N2CCCC(c3ccc(F)cc3)=N2)cc1,0,i,18,0.68,·,·,·,3.0,3.0,2.0
O=C(CSCC(=O)N1CCCCC1)Nc1nc(-c2cccs2)cs1,-13,i,-5,0.72,-4,-24,0.2,2.1,-0.2,-5.0
COc1ccc(S(=O)(=O)N(C)C)cc1NC(=O)COC(=O)Cn1cnc2ccccc2c1=O,-1,i,·,0.66,·,·,·,4.0,-0.6,-4.3
C=CCN1C(=O)C(Cc2cccc(C)c2)SC1=Nc1ccc(C(=O)O)cc1 (centres undefined),1,·,-29,0.65,·,·,·,0.5,0.5,·
COc1ccc(NC(=O)c2ccccc2-c2ccccc2)cc1,-2,·,27,0.68,-20,-14,-4.1,1.6,0.6,-13
O=c1c2ccccc2nc(COc2ccccc2)n1/N=C/c1cn[nH]c1-c1ccccc1,41,i,12,·,-6,-10,-0.4,·,?,-5.9
COc1cccc(C2(C)NC(=O)N(CC(=O)Nc3ccc(N4CCOCC4)cc3)C2=O)c1 (centres undefined),-2,i,·,0.72,2,5,-0.4,3.4,-0.1,-0.2
COc1ccc(C(=O)CC(=O)Nc2ccc([N+](=O)[O-])cc2)cc1,·,i,1,0.59,15,14,2.1,3.7,-0.5,0.8
CC(Oc1ccc(F)cc1)C(=O)Nc1cc(C(F)(F)F)ccc1-n1cncn1 (centres undefined),-5,·,2,0.69,-3,-8,2.6,3.0,-1.0,-1.9
Cn1c(CCn2ccccc2=O)nc2cc(NC(=O)COc3ccccc3)ccc21,·,i,-12,0.67,0,12,-1.2,5.8,-0.3,-0.8
CC1CCC(NC(=O)CSc2ccc(S(=O)(=O)N(C)C)cn2)CC1 (centres undefined),-6,i,·,0.71,14,11,2.4,2.8,-0.4,-1.4
O=C(CCc1n[nH]c(=O)[nH]c1=O)N1CCOCC1,-4,i,-16,0.67,5,6,-0.9,2.8,0.1,-1.1
CCOc1ccc2c(c1)C(=NNC(=O)c1ccncc1)c1cc(OCC)ccc1-2,65,i,60*,0.68,-5,-20,2.6,0.1,-0.8,1.4
COc1ccc(C(=O)N2CC3(CC(c4ccc(Cl)cc4)=NO3)C[C@H]2C(=O)NCC(N)=O)cc1 (some centres undefined),-7,i,-9,·,4,7,2.6,-0.4,0.0,-4.1
CC1=C(C(=O)Nc2ccccc2C(=O)NCCCN2CCN(C)CC2)SCCO1,-6,i,-1,0.65,4,15,1.4,3.6,-1.2,3.5
O=C(CCC(=O)c1cccs1)NNC(=O)c1ccccc1Cl,-1,i,·,0.64,1,1,2.2,-1.2,0.5,-1.6
COc1ccc(/C=C2\SC(=S)N(CCC(=O)NCCCN3CCOCC3)C2=O)cc1,-10,i,5,0.63,-2,6,-0.1,4.7,-0.5,7.4
CCS(=O)(=O)C1=NSC2=NC(=O)/C(=C\c3ccc(OS(=O)(=O)c4ccccc4)c(OC)c3)C(=N)N21,-4,·,0,0.71,·,·,·,8.1,0.3,·
COc1ccc(-c2nnc3n2-c2ccccc2SC3)cc1OC,0,·,-11,0.69,·,·,·,-0.5,-0.3,·
CSc1nc2nccc(-c3ccc(-c4ccccc4)cc3)n2n1,3,·,16,0.77,·,·,·,-29,-0.6,·
COc1cccc(C(=O)Nc2c3c(nn2-c2cccc(C)c2C)CS(=O)C3)c1OC (centres undefined),-7,·,-19,0.75,·,·,·,4.1,-0.2,·
COc1ccc(OCCOc2ccc(S(=O)(=O)N3CCCC3)cc2[N+](=O)[O-])cc1,1,i,·,0.7,-11,0,2.3,-1.2,-0.5,0.0
Nc1nn(-c2ccccc2)c2ccc([N+](=O)[O-])cc12,6,i,-4,0.66,-21*,9.0*,0.9*,10,-12,1.3
CCn1c(C)nc2cc(C(=O)NNC(=S)NC(=O)c3ccccc3)ccc21,-3,i,15,0.66,-41,-55,-1.2,4.3,-0.4,-2.4
C=CCN(C(=O)COC(=O)c1cc[n+]([O-])cc1)c1nc(-c2ccccc2)cs1,-5,i,·,0.67,8,-27,-3.9,-0.2,0.0,-4.8

# Compound profiles, from the list above:
# CCS(=O)(=O)C1=NSC2=NC(=O)/C(=C\c3ccc(OS(=O)(=O)c4ccccc4)c(OC)c3)C(=N)N21 as listed: Beta cell apopt: -4; FGF22 binding: ·; T cruzi inh: 0; E coli growth: 0.71; Ecoli rRNA inh: ·; Ecoli rRNA inh OD600: ·; Ecoli rRNA inh RFP: ·; UCH37 DUB inh: 8.1; Bfl-1 A1 inh: 0.3; AF4-AF9 inh: ·
# CC(Oc1ccc(F)cc1)C(=O)Nc1cc(C(F)(F)F)ccc1-n1cncn1 (centres undefined) as listed: Beta cell apopt: -5; FGF22 binding: ·; T cruzi inh: 2; E coli growth: 0.69; Ecoli rRNA inh: -3; Ecoli rRNA inh OD600: -8; Ecoli rRNA inh RFP: 2.6; UCH37 DUB inh: 3.0; Bfl-1 A1 inh: -1.0; AF4-AF9 inh: -1.9

# Bioassay records as filed in PubChem.
